# HIV Env fusion – blocks HIV Env-driven cell-cell fusion; HeLa-JRFL Env/CEM21 cell fusion, luciferase; inhibition, % at 12.3 µM; 360,000 compounds, 1.1% hits; AID 651610;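 active = mean replicate inhibition score of at least 50 and every replicate individually at or above 50; inconclusive = only one of the two criteria met; inactive = mean below 50 and not all replicates reaching 50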;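 also: 0% = plate neutral controls and 100% = maraviroc near 300 nM; one replicate is shown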
# Rce1 inh – yeast Ras-converting enzyme inhibition. AID 2563. Q03530. 290,000 compounds, 0.27% hits. yeast membranes, quenched prenylated peptide cleavage fluorescence. calls only;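 active = fall in fluorescence gain of 50% or more versus controls, with final raw signal at or below 3038400; inconclusive = same 50% fall but final raw signal above 3038400; inactive = fall in fluorescence gain under 50%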;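 also: plate controls were neutral control wells for no effect and wells lacking membranes for full effect; tested at 10 µM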
# UUG fidelity – alters start codon recognition fidelity in yeast. 350,000 compounds, 0.13% hits. activity score, % at 18.7 µM. S. cerevisiae UUG-firefly luciferase reporter, luminescence/redox ratio;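 active = replicate mean at a twofold rise or more, about +100% in these data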;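 also: firefly luciferase made from a UUG start codon reports start codon fidelity; reporter light over untreated wells divided by growth signal over untreated wells; some hits fall short of that in this replicate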
# eIF4H inh – inhibitors of RNA binding by human eIF4H | Q15056 | eIF4H fluorescence polarization binding assay | inhibition, % at 35 µM | 290,000 compounds, 0.94% hits;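 active = 50% or more with normal probe brightness, or confirmed in later tests; inconclusive = above 50% with abnormal brightness, or retests that disagree; inactive = below 50% or failed in later tests; about a fifth of its hits are not listed in these tables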;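 also: calls also rest on retests at 20 µM and on dose response follow-up; 0% = protein and probe with vehicle and 100% = probe without protein; strong numbers were not always called active; many hits fall short of the cut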
# MT1-MMP act inh – inhibitors of human MT1-MMP activation | 360,000 compounds, 0.061% hits | P50281 | HT1080 RFP-PRO-GFP cells, GFP/RFP ratio fluorescence, overnight; percent of plate control window, DMSO zero | GFP/RFP ratio change, % at 20 µM;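 active = GFP/RFP ratio change of at least 30% with cell ATP level not reduced by more than half and red fluorescence within 50% of control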; also: strong numbers were not always called active
#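 Material – HT1080 RFP-PRO-GFP cells · Control set – DMSO wells and RFP-L50D-GFP cells · Incubation – overnight cell settling, then overnight compound exposure, 37 °C, 5% CO2 · Compound dosing – single-point 20 µM compound, 1% DMSO · Read-out – GFP/RFP fluorescence ratio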
# CSC inhib – blocks cancer stem cells | cancer stem cell-like cells viability, luminescence | inhibition, % at 7.5 µM | 300,000 compounds, 1.1% hits | AID 2717;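 active = mean at 75% or more and at least half the replicates too; inconclusive = mean and replicates disagree; tested in HMLE shEcad cells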;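 also: 0% = median of negative and 100% = median of positive control wells; the first replicate is given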
# PABP FP inh – blocks human PABP binding to poly(A) RNA. P11940. AID 2014. fluorescence polarization. 290,000 compounds, 1% hits. inhibition, % at 35 µM;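 active = 50% or more with normal probe brightness, or confirmed in later tests; inconclusive = above 50% with abnormal brightness, or retests that disagree; inactive = below 50% or failed in later tests; about a fifth of its hits are not listed in these tables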;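 also: calls also rest on retests at 20 µM and on dose response follow-up; controls were probe without protein and protein plus probe with vehicle; some compounds called inactive have numbers as strong as hits; many hits fall short of the cut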
# Target sequence (P11940 whole entry, looked up): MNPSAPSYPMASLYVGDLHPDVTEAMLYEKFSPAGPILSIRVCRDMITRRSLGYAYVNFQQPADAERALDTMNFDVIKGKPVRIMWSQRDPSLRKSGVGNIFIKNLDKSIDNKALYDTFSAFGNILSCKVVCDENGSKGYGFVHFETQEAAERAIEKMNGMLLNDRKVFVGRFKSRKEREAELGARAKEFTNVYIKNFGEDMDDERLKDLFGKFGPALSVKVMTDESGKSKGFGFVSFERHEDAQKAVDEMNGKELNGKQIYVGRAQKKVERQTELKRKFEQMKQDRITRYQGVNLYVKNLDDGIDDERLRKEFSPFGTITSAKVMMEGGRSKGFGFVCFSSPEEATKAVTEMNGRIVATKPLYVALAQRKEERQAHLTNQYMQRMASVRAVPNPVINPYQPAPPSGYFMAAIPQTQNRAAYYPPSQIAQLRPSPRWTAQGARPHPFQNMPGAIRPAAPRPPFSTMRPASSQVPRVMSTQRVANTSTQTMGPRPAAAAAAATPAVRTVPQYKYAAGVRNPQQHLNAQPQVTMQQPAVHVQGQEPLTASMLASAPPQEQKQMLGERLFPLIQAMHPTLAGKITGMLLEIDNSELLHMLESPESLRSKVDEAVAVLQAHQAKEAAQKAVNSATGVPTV
# eIF4H inh retest – recorded beside eIF4H inh, whose call it bears; inhibition, %; compound at 20 µM; confirmation average;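 mean of two retest wells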
# PABP FP inh retest – second read-out of PABP FP inh, no call of its own (marks repeat the call); inhibition, %; compound at 20 µM; confirmation repeats;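 mean of two retest wells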
# MT1-MMP act inh RFP – also measured in MT1-MMP act inh; calls as there; RFP signal change, %; measured here: RFP expression control read;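 0 = vehicle wells; hits needed this value within 50% of zero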
# An asterisk follows results filed as active; i = inactive; u = inconclusive; x = no result given.
SMILES,HIV Env fusion,Rce1 inh,UUG fidelity,eIF4H inh,MT1-MMP act inh,MT1-MMP act inh RFP,CSC inhib,PABP FP inh,others
CCn1c(SC(C)C(=O)OC)nnc1-c1c[nH]c2ccccc12 (stereo not given),8,i,-9,-4,1,4,-7,4,
COc1ccc(OC)c(S(=O)(=O)NCCc2ccccc2)c1,x,i,x,0,-1,2,-15,-6,
CC1CN(CCOc2cccc(Oc3ccccc3)c2)CC(C)O1 (stereo not given),21,i,-11,10,2,-2,x,1,
Cc1ccc(-c2[nH]c(-c3ccc(Cl)cc3)nc2SCC(=O)NCC2CCCO2)cc1 (stereo not given),-19,i,7,-3,-9,-9,3,-9,
C[n+]1ccccc1/C=C/c1ccc(C#N)cc1,15,i,-11,41,2,2,-10,93*,eIF4H inh retest=6;PABP FP inh retest=96*
Cc1ccc(NC2=C(N3CCCCC3)C(=O)c3ccccc3C2=O)cc1,x,i,x,-2,-15,-10,-1,10,
COc1cccc(C2C(C#N)=C(N)Oc3c2oc(CO)cc3=O)c1OC (stereo not given),-24,i,-5,-2,5,-4,-16,9,
CCOc1cc(C(C(=O)NCC2CCCO2)N(C(=O)Cn2nnc3ccccc32)c2ccc(C(C)=O)cc2)ccc1O (stereo not given),-2,i,x,-2,-2,1,x,13,
OC(c1ccccc1)c1nccc2ccccc12 (stereo not given),10,i,x,0,2,4,-15,-4,
COc1cc(OC)cc(C(=O)NCC(=O)N2CCC(C)CC2)c1,-3,x,-5,0,-4,0,-5,12,
N#CCCn1c(C(C#N)(CCC#N)CCC#N)nc2ccccc21,-8,i,-11,2,3,1,-15,1,
O=C(NCCc1ccccc1)C1CCN(S(=O)(=O)N2CCCCCC2)CC1,0,i,-5,-1,x,x,-7,4,
COc1ccc(CN(C(=S)Nc2ccccc2)C2CC(=O)N(c3ccccc3)C2=O)cc1 (stereo not given),11,i,5,-8,1,6,17,13,
Cc1ccc(CN(C(=O)c2csnn2)C(C(=O)NC2CCCC2)c2cccnc2)cc1 (stereo not given),19,x,-12,8,0,2,1,6,
CC(NC(=O)NCCCC(=O)O)(C(F)(F)F)C(F)(F)F,x,i,-14,-9,5,5,15,-11,
C=CCNC(=O)C(=O)NCCOc1ccccc1Cl,-12,i,x,4,1,2,13,41,
O=C(Nc1nnc(S(=O)(=O)Nc2ccccc2)s1)C1CCCCC1,-24,i,-6,0,3,9,1,-6,
CCCn1c(SCC(=O)NC(C)(C)C)nnc1-c1ccco1,-12,i,-6,-8,2,-2,x,3,
CCCCN1C(=O)CC(Sc2ccccc2C(=O)O)C1=O (stereo not given),x,x,-14,-8,1,3,-1,2,
CC(=O)Nc1cccc(NC(=O)CCc2ccccc2)c1,x,i,-4,-8,7,3,-8,10,
CC(=O)c1c(C)oc2c1cc(NS(=O)(=O)c1ccc(C(=O)O)cc1)c1ccccc12,19,x,-8,3,-5,5,42,14,
Cc1oc(C(C)(C)C)cc1C(=O)NCc1ccc2c(c1)OCO2,8,i,-38,4,0,-4,-6,2,
COc1cc(OC)cc(C(=O)N2CCCC(Nc3ccc(F)cc3)C2)c1 (stereo not given),-6,i,-13,-13,-4,-1,0,5,
C/C(CC(=O)Nc1ccc2c(c1)OCCO2)=N\NC(=O)Cc1ccc(Cl)cc1,-8,i,2,-11,3,1,-20,2,
Cc1onc(-c2ccccc2)c1C(=O)OCC(=O)c1ccccc1,x,i,-17,3,2,-4,5,0,
O=C(NCc1ccc2c(c1)OCO2)C(=O)Nc1cc2c3c(c1)CC(=O)N3CCC2,-10,i,-16,x,5,-2,-4,x,
CC(Oc1ccc(F)cc1)C(=O)Nc1cccc(-c2nn[nH]n2)c1 (stereo not given),x,i,-19,-2,-5,-1,0,3,
Cc1ccc(C(=O)O/N=C(\N)c2ccc(Br)cc2)cc1C,-98,i,-17,5,3,0,0,-8,
CC(C)[C@H](NC(=O)OCc1ccccc1)C(=O)OCC(=O)c1ccccc1,-26,x,-7,x,-4,0,-8,x,
COc1ccc(Oc2nnc(C)c3ccccc23)cc1,-162,i,-15,-5,-1,-4,-3,-8,

# Quoted at random: 6 compounds from above.
SMILES,HIV Env fusion,Rce1 inh,UUG fidelity,eIF4H inh,MT1-MMP act inh,MT1-MMP act inh RFP,CSC inhib,PABP FP inh,others
C=CCNC(=O)C(=O)NCCOc1ccccc1Cl,-12,i,x,4,1,2,13,41,
Cc1onc(-c2ccccc2)c1C(=O)OCC(=O)c1ccccc1,x,i,-17,3,2,-4,5,0,
CCCn1c(SCC(=O)NC(C)(C)C)nnc1-c1ccco1,-12,i,-6,-8,2,-2,x,3,
CC(=O)Nc1cccc(NC(=O)CCc2ccccc2)c1,x,i,-4,-8,7,3,-8,10,
CC(C)[C@H](NC(=O)OCc1ccccc1)C(=O)OCC(=O)c1ccccc1,-26,x,-7,x,-4,0,-8,x,
CC(Oc1ccc(F)cc1)C(=O)Nc1cccc(-c2nn[nH]n2)c1 (stereo not given),x,i,-19,-2,-5,-1,0,3,

# Other entries follow:
SMILES,HIV Env fusion,Rce1 inh,UUG fidelity,eIF4H inh,MT1-MMP act inh,MT1-MMP act inh RFP,CSC inhib,PABP FP inh,others
CCN(CC)C(=O)c1ccc(C(=O)c2ccccc2)cc1,x,i,-11,-10,1,-4,-2,4,
CS(=O)(=O)N(CC(=O)N1CCc2ccccc2C1)c1cccc(F)c1,2,x,5,4,5,1,-21,6,
COc1ccc2cc(-c3ccccc3)c(=O)oc2c1,-109,u,-24,6,-2,1,0,0,
CCOc1ccccc1C(=O)NCC(=O)OCc1csc(CC(=O)Nc2ccc(C)cc2)n1,x,x,-5,x,-1,0,15,x,
CCOC(=O)c1c(C)nc(C)c(C(=O)OCC)c1-c1ccc(Br)cc1,9,i,x,-5,-9,-3,13,7,
NC(=O)c1ccccc1NC(=O)CN1CCN(Cc2ccc(Cl)cc2Cl)CC1,8,i,3,-6,1,-17,-21,-2,
NC(=O)c1c(/N=C/c2cccnc2)sc2c1CCCC2,9,i,-9,-11,3,0,3,-9,
Cc1nc2oc(C(=O)c3ccccc3)c(N)c2c2c1COC(C)(C)C2,x,x,-7,-2,-1,-2,x,-6,
Cc1c(-c2ccccc2)[n+](=O)c(-c2ccc(Cl)cc2)c(C)n1[O-],-1,i,-13,2,3,7,-11,-1,
O=C(c1cc2cc(Br)cc(Br)c2oc1=O)N1CCCC1,-23,i,-18,-4,9,7,-14,-1,
COc1ccc(NC(=O)OC(CN2CCCCC2)C(F)(F)F)cc1 (stereo not given),x,i,-7,-3,-1,-1,-1,3,
Cc1ccc(-c2nnn(CC(=O)Nc3cccc4cccnc34)n2)o1,17,x,-7,12,-7,-9,x,22,
Cc1ccc(S(=O)(=O)N2CCCC2C(=O)Nc2cc(C)on2)cc1 (stereo not given),x,i,x,-8,-1,9,-10,2,
O=C(COC(=O)C12CC3CC(CC(C3)C1)C2)Nc1ccc2[nH]c(=O)[nH]c2c1,x,i,-9,0,0,4,11,-6,
CC(C)(C)C1CCc2c(C(=O)N/N=C/c3cccs3)csc2C1 (stereo not given),x,i,3,-13,0,-5,36,-2,
O=C(Nc1ccccc1Cl)c1cccs1,x,i,-9,0,12,2,-16,6,
CC(C)Cc1cc(C(=O)NCCN2CCOCC2)no1,-5,i,-14,-2,3,9,-9,-18,
CC(=O)N(C)c1ccc(NC(=O)Nc2ccc(C)cc2)cc1,2,i,x,-3,12,10,10,-3,
Cc1ccc(NC(=O)NCc2ccccn2)cc1Cl,-5,i,-15,2,2,1,3,-4,
COc1ccc(NC(=O)C(=O)NNC(=O)COc2ccc(OC)cc2)cc1,-4,i,-5,x,-3,4,6,x,
Cc1cc(SCc2ccc(F)cc2)nc(=O)[nH]1,-3,i,-4,-12,-3,0,-6,10,
CC(=O)Nc1ccc(/C(C)=N/NC(=O)c2ccc(COc3ccccc3Cl)o2)cc1,4,x,-12,x,-10,0,26,x,
CCOCCCn1c(C)nc2c(c1=O)c1nc3ccccc3nc1n2-c1ccc(C)cc1,x,i,x,-7,0,0,-3,5,
CN(C)S(=O)(=O)N1CCN(c2cccc(Cl)c2)CC1,3,i,-8,-2,-9,3,-7,16,
Cc1c(Cc2ccccc2)c(=O)n2c([nH]c3ccccc32)c1C#N,-1,u,6,6,-15,-18,42,0,
CC(=O)N1CCN(C(=O)/C(C#N)=C/c2ccc3c(c2)OCO3)CC1,-6,i,-10,10,0,3,25,10,
CCCCN(C)C(=O)c1nc2ccccn2c1CN1CCN(c2cnccn2)CC1,-24,i,-5,-4,6,6,-9,-10,
CCN(CC)c1ccc(C=C(c2nnnn2-c2ccccc2)c2nnnn2-c2ccccc2)cc1,-46,i,3,u,-82,3,21,-6,
CCCOc1ccc(N2C(=O)CC(N(Cc3ccco3)C(=O)CC)C2=O)cc1 (stereo not given),9,i,-18,-3,-2,-4,1,-4,
O=C(OCC(=O)c1ccc(Cl)s1)c1cnccn1,26,i,0,8,-4,5,1,4,

# A draw from above in order of molecular weight, rising.
SMILES,HIV Env fusion,Rce1 inh,UUG fidelity,eIF4H inh,MT1-MMP act inh,MT1-MMP act inh RFP,CSC inhib,PABP FP inh,others
COc1ccc2cc(-c3ccccc3)c(=O)oc2c1,-109,u,-24,6,-2,1,0,0,
COc1ccc(Oc2nnc(C)c3ccccc23)cc1,-162,i,-15,-5,-1,-4,-3,-8,
COc1ccc(OC)c(S(=O)(=O)NCCc2ccccc2)c1,x,i,x,0,-1,2,-15,-6,
Cc1nc2oc(C(=O)c3ccccc3)c(N)c2c2c1COC(C)(C)C2,x,x,-7,-2,-1,-2,x,-6,
CC(C)[C@H](NC(=O)OCc1ccccc1)C(=O)OCC(=O)c1ccccc1,-26,x,-7,x,-4,0,-8,x,

# The listing continues.
SMILES,HIV Env fusion,Rce1 inh,UUG fidelity,eIF4H inh,MT1-MMP act inh,MT1-MMP act inh RFP,CSC inhib,PABP FP inh,others
CN(c1ccc(C(=O)NC2CCCCC2)cc1)S(=O)(=O)c1ccccc1,-1,i,4,-6,4,-7,37,12,
Cc1cc(F)ccc1S(=O)(=O)Nc1ncnc2sc3c(c12)CCC3,8,i,x,8,-1,-3,-7,-3,
C/C(=C\c1ccccc1)C(=O)N1CCN(Cc2ccc3c(c2)OCO3)CC1,20,i,-2,-2,2,-7,-11,-5,
O=C(Cn1c(CO)nc2ccccc21)NC1CCCCCC1,x,i,x,-25,2,1,8,-5,
CCOC(=O)C1CCN(Cc2c(O)ccc3ccccc23)CC1,1,i,x,0,-6,-1,-9,-8,
COc1ccc(-c2cn[nH]c2-c2ccc(OCc3ccc(F)cc3)cc2O)cc1OC,29,i,-25,-7,-4,-26,53,-4,
CCC(c1nnnn1CCOC)N(Cc1ccc(C)cc1)Cc1cc2cc(OC)ccc2[nH]c1=O (stereo not given),x,i,-1,20,0,-5,-4,40,
CCCCNC(=O)CSc1nnc(-c2cccc(S(=O)(=O)N3CCOCC3)c2)o1,-6,x,-14,x,3,3,x,x,

# An excerpt. The share of hits here may be higher or lower than overall.
